rRNA inh HTS = inhibitors of bacterial rRNA selective over humanized ribosomes; E. coli WT GFP vs humanized-ribosome RFP mutants, fluorescence, 24 h; hits give low values; DMSO median 0, no signal -100; actives 1.6% (n = 350,000); GFP signal change (wild-type ribosome), % (concentration not given with the values);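 active means significant combined selectivity score with lowered wild-type GFP, culture density cut under 30%, mutant RFP and density less affected; inactive means any of these conditions unmet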; further: one replicate is shown; some compounds called inactive have numbers as strong as hits
FGF22 binding = shifts melting point of recombinant human FGF22. Q9HCT0. recombinant FGF22 thermal shift, SYPRO orange fluorescence; percent of sucrose octasulfate shift, DMSO zero. calls only at 9.99 µM. actives 1.5% (n = 340,000). AID 651658;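 active means melting point raised past a set limit in the mean and every replicate; three in four hits are not shown here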
Target sequence (Q9HCT0 whole entry, looked up): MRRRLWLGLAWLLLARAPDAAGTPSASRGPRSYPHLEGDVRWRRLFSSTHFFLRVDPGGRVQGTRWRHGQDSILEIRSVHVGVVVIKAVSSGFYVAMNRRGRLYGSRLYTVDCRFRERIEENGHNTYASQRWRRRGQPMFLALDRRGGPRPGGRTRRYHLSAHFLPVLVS
rRNA inh HTS OD600 = second read-out of rRNA inh HTS, no call of its own (marks repeat the call); OD600 change, %; measured here: OD600 growth;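 optical density of the mix in the first replicate; 0 = DMSO median and -100 = no signal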
rRNA inh HTS RFP = further read-out of rRNA inh HTS, marked with its call; RFP signal change, %; measured here: RFP humanized mutant strains;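 first replicate; 0 = DMSO median and -100 = no signal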
Numbers without * were called inactive; i = inactive. The list is partial; count on the stated rates, not on these rows.

rRNA inh HTS | rRNA inh HTS OD600 | rRNA inh HTS RFP | FGF22 binding | Structure
-1 | -8 | -3.2 | i | Cc1noc(C)c1NC(=O)N(C)C[C@H]1Oc2ccc(NC(=O)CCC(F)(F)F)cc2CC(=O)N([C@H](C)CO)C[C@@H]1C
9 | 6 | -1.8 | i | COc1ccc(-c2ccc3c(c2)[C@H]2[C@H](CCN2C(=O)Cc2ccncc2)[C@H](CO)N3)cc1
-2 | 3 | 2.3 | i | Cc1noc(C)c1NC(=O)Nc1ccc2c(c1)C(=O)N([C@H](C)CO)C[C@H](C)[C@@H](CN(C)Cc1ccc(C(F)(F)F)cc1)O2
-1 | 0 | 4.9 | i | COc1ccc(S(=O)(=O)Nc2ccc3c(c2)C(=O)N([C@@H](C)CO)C[C@@H](C)[C@@H](CN(C)Cc2ccc(C(F)(F)F)cc2)OCCCC[C@@H](C)O3)cc1
5 | 12 | -0.8 | i | CC(=O)N(C)C[C@H]1Oc2ncc(/C=C/c3ccccc3)cc2C(=O)N([C@H](C)CO)C[C@H]1C
7 | 16 | 5.6 | i | O=S1(=O)CCSC[C@@H](CN2CCCC2)N1
-4 | -1 | 6.4 | i | CO[C@H]1CN(C)C(=O)c2cc(NC(=O)c3ccc(Oc4ccccc4)cc3)ccc2OC[C@@H](C)NC[C@@H]1C
-1 | -15 | 1.0 | i | C[C@@H]1CCCCO[C@@H](CN(C)CC2CCCCC2)[C@H](C)CN([C@@H](C)CO)C(=O)c2cc(NC(=O)Nc3ccc(F)cc3)ccc2O1
-2 | -3 | 9.4 | i | COc1ccc(S(=O)(=O)Nc2ccc3c(c2)C(=O)N([C@@H](C)CO)C[C@@H](C)[C@H](CN(C)CC2CCCCC2)OCCCC[C@H](C)O3)cc1
-1 | 8 | 1.5 | i | COC(=O)C[C@H]1CC[C@@H]2[C@H](COc3ccc(NC(=O)c4ccc(C(F)(F)F)cc4)cc3C(=O)N2C)O1
-2 | 0 | 0.8 | i | C[C@@H]1CN([C@H](C)CO)C(=O)c2cc(-c3cccc(F)c3)cnc2O[C@@H]1CN(C)C(=O)c1cccc(F)c1
-6 | -7 | 5.6 | i | CO[C@@H]1CN(C)C(=O)c2cc(NS(=O)(=O)c3ccc(Oc4ccccc4)cc3)ccc2OC[C@H](C)NC[C@H]1C
2 | 20 | 0.1 | i | C[C@@H]1CN([C@H](C)CO)C(=O)c2cc(Br)cnc2O[C@H]1CN(C)Cc1ccc2c(c1)OCO2
3 | 8 | 1.5 | i | C[C@H](CO)N1C[C@H](C)[C@H](CN(C)Cc2ccccc2F)Oc2ncc(C#CCN(C)C)cc2C1=O
-3 | 2 | -3.4 | i | CCC(=O)N(C)C[C@@H]1Oc2cc(C#C[C@H](C)O)ccc2S(=O)(=O)N([C@H](C)CO)C[C@H]1C
-2 | -2 | 0.5 | i | CCCNC(=O)C[C@@H]1CC[C@@H]2[C@H](COc3ccc(NC(=O)Nc4ccccc4F)cc3C(=O)N2C)O1
-2 | -7 | 2.0 | i | N#Cc1ccc(-c2ccc3c(c2)[C@@H]2[C@@H](CCN2S(=O)(=O)c2cccc(F)c2)[C@@H](CO)N3)cc1
0 | 10 | -1.1 | i | O=C(c1cccc(F)c1)N1C[C@@H]2[C@H](c3ccccc31)[C@@H](CO)N2C(=O)C1CCCC1
-1 | 2 | -2.8 | i | CN(C)C(=O)C[C@@H]1C=C[C@H](NC(=O)Nc2cccc(F)c2)[C@@H](CO)O1
5 | 3 | 3.8 | i | C[C@@H]1CN([C@@H](C)CO)C(=O)c2cc(NC(=O)Nc3ccccc3)ccc2O[C@@H](C)CCCCO[C@@H]1CN(C)CC1CCCCC1
-14 | -28 | 10 | i | C[C@@H]1CN([C@H](C)CO)C(=O)c2cc(C#Cc3cccc(F)c3)cnc2O[C@@H]1CN(C)CC1CCCC1
-2 | -3 | 1.4 | i | C[C@@H]1CN([C@@H](C)CO)S(=O)(=O)c2ccc(C3=CCCC3)cc2O[C@@H]1CN(C)Cc1ccccc1F
4 | -2 | -1.6 | i | CC(C)NC(=O)N(C)C[C@H]1Oc2c(NC(=O)Nc3ccccc3)cccc2C(=O)N([C@H](C)CO)C[C@H]1C
1 | -6 | 3.3 | i | Cc1ccc(S(=O)(=O)Nc2ccc3c(c2)C(=O)N([C@@H](C)CO)C[C@@H](C)[C@H](CN(C)Cc2ccc(-c4ccccc4)cc2)O3)cc1
-2 | -2 | -0.3 | i | Cc1ccc(S(=O)(=O)N[C@H]2CC[C@H](CCNC(=O)C3CCC3)O[C@H]2CO)cc1
3 | 8 | -6.2 | i | C[C@@H]1CN([C@H](C)CO)S(=O)(=O)c2ccc(C#Cc3ccccc3)cc2O[C@@H]1CN(C)C(=O)Nc1ccccc1
-5 | -9 | 7.5 | i | C[C@@H]1CN([C@H](C)CO)C(=O)c2c(c3ccccc3n2C)-c2ccccc2CO[C@H]1CN(C)Cc1cccc(F)c1
1 | 13 | 1.0 | i | CCCN(C)C[C@H]1Oc2cc(C3=CCCCC3)ccc2S(=O)(=O)N([C@H](C)CO)C[C@H]1C
-62 | -70 | -11 | i | Cc1cccc(-c2ccc(C3[C@@H]4CN(C(=O)Nc5ccccc5)C[C@H]3N4)cc2)c1 (stereo partly drawn)
-54 | -65 | -4.8 | i | COc1cccc(-c2ccc([C@@H]3[C@@H](CO)N4CCCCN(C(=O)c5ccc(F)cc5)C[C@@H]34)cc2)c1

Compound profiles, as listed above. Values in the order: rRNA inh HTS	rRNA inh HTS OD600	rRNA inh HTS RFP	FGF22 binding
Results for `CN(C)C(=O)C[C@@H]1C=C[C@H](NC(=O)Nc2cccc(F)c2)[C@@H](CO)O1` : -1	2	-2.8	i
Results for `C[C@@H]1CN([C@@H](C)CO)S(=O)(=O)c2ccc(C3=CCCC3)cc2O[C@@H]1CN(C)Cc1ccccc1F` : -2	-3	1.4	i
Results for `Cc1cccc(-c2ccc(C3[C@@H]4CN(C(=O)Nc5ccccc5)C[C@H]3N4)cc2)c1` (stereo partly drawn) : -62	-70	-11	i

The listing picks up, starting 4 compounds before the break.
rRNA inh HTS | rRNA inh HTS OD600 | rRNA inh HTS RFP | FGF22 binding | Structure
-5 | -9 | 7.5 | i | C[C@@H]1CN([C@H](C)CO)C(=O)c2c(c3ccccc3n2C)-c2ccccc2CO[C@H]1CN(C)Cc1cccc(F)c1
1 | 13 | 1.0 | i | CCCN(C)C[C@H]1Oc2cc(C3=CCCCC3)ccc2S(=O)(=O)N([C@H](C)CO)C[C@H]1C
-62 | -70 | -11 | i | Cc1cccc(-c2ccc(C3[C@@H]4CN(C(=O)Nc5ccccc5)C[C@H]3N4)cc2)c1 (stereo partly drawn)
-54 | -65 | -4.8 | i | COc1cccc(-c2ccc([C@@H]3[C@@H](CO)N4CCCCN(C(=O)c5ccc(F)cc5)C[C@@H]34)cc2)c1
4 | -1 | 2.2 | i | C[C@@H]1CN([C@H](C)CO)C(=O)c2cc(NC(=O)Nc3ccc(C(F)(F)F)cc3)ccc2O[C@@H]1CN(C)S(=O)(=O)c1ccc(Cl)cc1
5 | 12 | -3.4 | i | COCC#Cc1cnc2c(c1)C(=O)N([C@H](C)CO)C[C@@H](C)[C@@H](CN(C)C(=O)Cc1cccnc1)O2
0 | -5 | 1.2 | i | O=C(C[C@@H]1CC[C@H]2[C@@H](COC[C@@H](O)CN2S(=O)(=O)c2ccc(F)cc2)O1)NCCN1CCCCC1
0 | 0 | 0.5 | i | CCCC#Cc1ccc([C@H]2[C@@H](C#N)N(C(=O)C3CCCC3)[C@@H]2CO)cc1
3 | 6 | -0.9 | i | COc1ccc2c3c([nH]c2c1)[C@@H](CO)N(S(C)(=O)=O)CC31CCN(CC2CC2)CC1
-15 | -7 | 2.5 | i | CC(C)NC(=O)N1[C@H](CO)[C@H]2c3ccccc3N(C(=O)Nc3cccc(Cl)c3)C[C@H]21
1 | 9 | -5.7 | i | CC(C)NC(=O)N1[C@H](CO)[C@@H]2c3ccccc3N(C(=O)C3CC3)C[C@@H]21
0 | -1 | 0.0 | i | O=C(C[C@H]1C[C@H]2c3cc(NC(=O)CC4CC4)ccc3O[C@H]2[C@H](CO)O1)NCC(F)(F)F
-1 | -3 | -2.7 | i | C[C@H](CO)N1C[C@H](C)[C@@H](CN(C)Cc2ccc(C(=O)Nc3ccccc3N)cc2)Oc2ccc(NC(=O)Cc3ccccc3)cc2C1=O
1 | 17 | -1.1 | i | O=C(C[C@@H]1CC[C@H]2[C@@H](COC[C@@H](O)CN2C(=O)c2cnccn2)O1)NCc1ccc(F)cc1
-7 | -22 | -0.5 | i | C[C@H]1CN([C@@H](C)CO)C(=O)c2cccc(NC(=O)c3nc4ccccc4s3)c2O[C@H]1CN(C)S(C)(=O)=O
2 | 6 | 1.8 | i | C[C@@H]1CN([C@@H](C)CO)C(=O)Cc2cc(NC(=O)Nc3ccc(F)cc3)ccc2O[C@H]1CN(C)Cc1ccc(C(F)(F)F)cc1
2 | 10 | 0.3 | i | O=C(C[C@@H]1C=C[C@H](NC(=O)NC2CCCC2)[C@H](CO)O1)NCc1ccc(F)cc1
-5 | -2 | -0.7 | i | COc1ccccc1-c1cnc2c(c1)C(=O)N([C@@H](C)CO)C[C@H](C)[C@H](CN(C)C(=O)CC1CC1)O2
2 | 6 | -1.2 | i | Cc1noc(C)c1S(=O)(=O)Nc1ccc2c(c1)CC(=O)N([C@@H](C)CO)C[C@@H](C)[C@@H](CN(C)S(=O)(=O)c1c(C)noc1C)O2
0 | -2 | -0.4 | i | CC(C)C#Cc1cnc2c(c1)C(=O)N([C@@H](C)CO)C[C@H](C)[C@@H](CN(C)Cc1ccccc1)O2
2 | -16 | 5.1 | i | C[C@H](CO)N1C[C@H](C)[C@H](CN(C)S(C)(=O)=O)Oc2cc(C#CC3CCCC3)ccc2S1(=O)=O
1 | 10 | 4.7 | i | CC(C)(C)[S@@](=O)N1Cc2cc(C(=O)N[C@H]3CCN(Cc4ccccc4)C3)nc(-c3cccc(-c4cccnc4)c3)c2[C@H]1CCO
6 | 11 | -1.0 | i | COc1ccc(-c2cnc3c(c2)C(=O)N([C@H](C)CO)C[C@H](C)[C@@H](CN(C)S(C)(=O)=O)O3)cc1
0 | -2 | -1.9 | i | CN(C)C(=O)[C@H]1[C@H](CO)[C@H]2Cn3c(ccc(C4=CCCC4)c3=O)[C@H]2N1C(=O)c1ccccc1F
4 | 6 | -0.3 | i | O=C(Nc1ccccc1F)N[C@@H]1C=C[C@H](CC(=O)N2CCCCC2)O[C@@H]1CO
1 | 0 | -1.3 | i | C[C@H](CO)N1C[C@H](C)[C@H](CN(C)C(=O)NC2CCCCC2)Oc2ncc(C#Cc3ccc(C(F)(F)F)cc3)cc2C1=O
1 | 1 | -0.5 | i | CCCN1C[C@@H](C)[C@H](OC)CN(C)C(=O)c2cc(NC(=O)c3ccc(F)cc3)ccc2OC[C@@H]1C
8 | -1 | 8.7 | i | CCCCCN(C(=O)CCc1cn(CCCCC)c2ccccc12)c1ccc(N(C)c2ccccn2)cc1
3 | 8 | -1.2 | i | CC=Cc1ccc2n(c1=O)C[C@H]1[C@H](CO)[C@@H](C(=O)NCCc3cn(C)cn3)N(C(=O)C3CC3)[C@@H]21 (mixture of isomers)
-2 | -4 | 1.0 | i | CC=Cc1ccc2n(c1=O)C[C@H]1[C@H](CO)[C@@H](C(=O)NCC3CC3)N(C(=O)C3CCOCC3)[C@@H]21 (mixture of isomers)
-3 | 6 | -1.9 | i | COc1ccc(-c2ccc3c(c2)[C@H]2[C@H](CCN2C(=O)Nc2ccccc2OC)[C@H](CO)N3C)cc1
-1 | -4 | 2.4 | i | C[C@@H]1CN([C@H](C)CO)C(=O)c2cc(NC(=O)Nc3ccccc3)ccc2O[C@@H](C)CCCCO[C@@H]1CN(C)C(=O)c1ccccc1
-5 | -6 | 0.8 | i | COCC(=O)Nc1ccc2c(c1)OC[C@H](C)N(Cc1ccccc1F)C[C@H](C)[C@@H](OC)CN(C)C2=O
-2 | -6 | 0.6 | i | CCC(=O)N(C)C[C@@H]1Oc2ncc(C#Cc3ccccc3)cc2C(=O)N([C@@H](C)CO)C[C@@H]1C
-6 | -18 | 2.1 | i | COc1ccccc1CNC(=O)C[C@H]1CC[C@H]2[C@@H](COC[C@@H](O)CN2Cc2ccc3c(c2)OCO3)O1
-4 | -10 | 0.3 | i | C[C@@H]1CCCCO[C@@H](CN(C)C(=O)Cc2ccccc2)[C@H](C)CN([C@@H](C)CO)C(=O)c2cc(NS(=O)(=O)c3ccc(F)cc3)ccc2O1
0 | 4 | 1.0 | i | COc1ccc(S(=O)(=O)N[C@@H]2CC[C@H](CC(=O)O)O[C@H]2CO)cc1
0 | -11 | 1.1 | i | O=C(Nc1cc(F)ccc1F)N[C@H]1CC[C@H](CCNC(=O)c2cnccn2)O[C@@H]1CO
0 | 7 | 0.2 | i | CCCN(C)C[C@@H]1Oc2cc(C#Cc3ccncc3)ccc2S(=O)(=O)N([C@H](C)CO)C[C@@H]1C
-1 | -1 | -0.4 | i | COc1ccc(NC(=O)N(C)C[C@@H]2OCCCC[C@H](C)Oc3ccc(NC(=O)c4ccncc4)cc3C(=O)N([C@@H](C)CO)C[C@@H]2C)cc1
-8 | -27 | 1.2 | i | CCC(=O)N(C)C[C@@H]1Oc2cc(-c3ccc(C#N)cc3)ccc2S(=O)(=O)N([C@@H](C)CO)C[C@H]1C
4 | -4 | 8.4 | i | C[C@H](CO)N1C[C@H](C)[C@H](CN(C)Cc2ccncc2)Oc2ncc(C#CC3CCCCC3)cc2C1=O
-1 | 0 | -0.3 | i | C[C@H]1CN([C@@H](C)CO)C(=O)Cc2cc(NC(=O)Nc3ccc(F)cc3)ccc2O[C@@H]1CN(C)C(=O)Nc1cccc2ccccc12
1 | 5 | -2.0 | i | CCCC(=O)Nc1ccc2c(c1)OC[C@@H](C)NC[C@H](C)[C@H](OC)CN(C)C2=O

Screening results deposited in PubChem BioAssay by Broad Institute.
